TRPV1 PAM – potentiators of human vanilloid receptor 1 (TRPV1); TRPV1-expressing cells, Fluo-8 calcium influx, capsaicin EC20 potentiation; host cell line not named in the record; control for the full effect not named in the record; potentiation, % at 8.33 µM; hit rate 0.02% among 320,000; active means potentiation above 80%; inconclusive means 30% to 80%; inactive means below 30%; also: 0% is about no effect
Target sequence (Q8NER1 whole entry, looked up): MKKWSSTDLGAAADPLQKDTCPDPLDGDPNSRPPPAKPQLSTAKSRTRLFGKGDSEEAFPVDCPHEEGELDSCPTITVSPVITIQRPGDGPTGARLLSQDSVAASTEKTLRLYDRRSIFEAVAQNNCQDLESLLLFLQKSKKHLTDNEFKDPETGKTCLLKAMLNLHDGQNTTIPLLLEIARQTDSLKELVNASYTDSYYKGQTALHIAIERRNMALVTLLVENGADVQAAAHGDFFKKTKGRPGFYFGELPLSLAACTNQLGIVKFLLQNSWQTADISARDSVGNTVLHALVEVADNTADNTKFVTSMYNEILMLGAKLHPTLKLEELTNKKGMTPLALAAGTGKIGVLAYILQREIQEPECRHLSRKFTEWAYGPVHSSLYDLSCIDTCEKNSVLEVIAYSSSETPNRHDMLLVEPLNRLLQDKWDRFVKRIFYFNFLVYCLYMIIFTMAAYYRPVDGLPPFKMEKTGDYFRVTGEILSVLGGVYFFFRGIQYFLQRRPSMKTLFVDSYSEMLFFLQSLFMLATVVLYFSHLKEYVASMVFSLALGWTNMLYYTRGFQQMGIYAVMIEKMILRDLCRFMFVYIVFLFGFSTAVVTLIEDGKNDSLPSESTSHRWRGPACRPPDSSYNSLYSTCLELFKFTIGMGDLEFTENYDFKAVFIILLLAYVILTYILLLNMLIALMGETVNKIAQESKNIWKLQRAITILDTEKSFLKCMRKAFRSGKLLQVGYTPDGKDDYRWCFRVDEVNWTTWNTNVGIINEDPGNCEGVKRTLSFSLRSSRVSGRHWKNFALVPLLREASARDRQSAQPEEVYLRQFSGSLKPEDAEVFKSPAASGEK
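TRPV1-expressing cells were cultured overnight at 35.5C and loaded with Fluo-8 calcium dye for 40 to 90 min at room temperature. After a 10 s baseline, compound was added and calcium influx was read kinetically for 3 min (ex 480/em 520 nm).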
CtBP-E1A inh – blocks the CtBP interaction with E1A; AID 651724; activity change, % (concentration not given with the values); AlphaScreen GST-E1A/His-CtBP binding, 1536-well; active compounds read low; control for the full effect not named in the record; hit rate 0.49% among 340,000; in the data active means activity change below about -65%; inconclusive means about -30% to -65%; inactive means above about -30%; also: % is scaled to controls: 0 for no effect and ±100 for the full control effect
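In 5 uL wells, 23 nL compound meets equimolar GST-E1A and His-CtBP (5X stock 125 nM each) for 2 h, 37 °C. Beads (5X, 50 ug/mL) then 1 h, 37 °C, dark.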
ClpP mod – qHTS Assay for Activators of ClpP. Potency, µM (top dose mostly 57.5 µM), for inactives: top-dose activity change, negative = active. purified B. subtilis ClpP, FRET peptide cleavage, 20 min. AID 651965, 2013. ATP-dependent Clp protease proteolytic subunit (Bacillus subtilis (strain 168)), P80244. hit rate 1.9% among 340,000; active = well fitted falling curve with a large enough effect; inconclusive = small, poorly fitted or top-dose-only effect; inactive = no such curve, though single readings can be large or run the other way; also: potency is read from the fitted curve at half-maximal effect; the source files actives as falling curves though it sought activators and does not explain the sign; nearly all actives have a fitted effect of over 65% in size; many hits overshoot -100%
Target sequence (P80244 whole entry, looked up): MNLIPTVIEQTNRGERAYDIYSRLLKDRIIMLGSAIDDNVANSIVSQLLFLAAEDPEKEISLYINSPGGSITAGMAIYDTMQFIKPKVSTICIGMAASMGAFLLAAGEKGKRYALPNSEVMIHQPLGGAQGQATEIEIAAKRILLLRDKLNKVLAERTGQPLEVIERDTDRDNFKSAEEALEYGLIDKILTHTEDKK
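FRET quenching reversal measured ClpP activation: 10 microg/mL B. subtilis ClpP at pH 8 with the FRET-FV decapeptide, read at 430 nm after 320 nm excitation. The 20-min minus 0-min signal was scaled between DMSO/no-enzyme wells and ADEP (5.8 microM final).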
gsp antag – gsp mutant antagonism | gsp-mutant cells, cAMP HTRF, 30 min; control for the full effect not named in the record | Potency, µM (top dose mostly 76.9 µM), for the others: top-dose activity change, negative = inhibition, most hits filed as inhibitors | hit rate 0.4% among 340,000 | AID 624288; active = falling curve of any shape with a large fitted effect; inconclusive = falling curve, mostly with a smaller effect; inactive = flat or rising curve; cell line not stated here;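 also: intracellular cAMP measured with PDE inhibitor Ro 20-1724 present during compound exposure; potency is read from the fitted curve at half-maximal effect; % is scaled to controls: 0 for no effect and ±100 for the full control effect; nearly all actives have a fitted effect of over 65% in size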
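HTRF cAMP measurement after 30 min RT detection following 30 min, 37C compound treatment alongside […] (added as 300 uM solution) in G418-selected cells seeded at 2000/well and grown 16–24 h.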
gsp ag – agonists of gsp mutant (McCune-Albright syndrome) | gsp mutant cells, cAMP HTRF, 30 min; control for the full effect not named in the record | Potency, µM (highest dose often 76.9 µM), for inactives: at the top dose activation (cAMP increase), usual class: activators | hit rate 0.13% among 340,000 | AID 624287; active = well fitted activation curve with a large enough effect; inconclusive = small, poorly fitted or top-dose-only effect, or another doubt; inactive = no such curve, though single readings can be large or run the other way; cell line not stated here;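 also: phosphodiesterase inhibitor Ro 20-1724 added with compounds to block cAMP breakdown; potency is read from the fitted curve at half-maximal effect; nearly all actives have a fitted effect of over 60% in size; about a fifth of the inactives were tested at one dose only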
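Cells stably selected in G418 were plated at 2000/well, grown 16-24 hr, then given compounds in DMSO with the PDE inhibitor […] (300 uM solution added) for 30 min at 37C; cAMP was read by HTRF.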
Sfp inh – inhibitors of Bacillus subtilis Sfp phosphopantetheinyl transferase | Biochemical Sfp PPTase activity, qHTS | Potency, µM, without a hit: max response, negative = inhibition, usual class: inhibitors | hit rate 3.5% among 310,000; active = well fitted inhibition curve with a large enough effect; inconclusive = small, poorly fitted or top-dose-only effect, or another doubt; inactive = no such curve, though single readings can be large or run the other way;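 also: the enzyme is Sfp with the accession as filed and its product quenches rhodamine fluorescence; potency is read from the fitted curve at half-maximal effect; 0% = enzyme reaction without inhibitor and -100% = no enzyme wells; top concentration of the series not given in the record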
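After 15 min at room temperature with compound, 15 nM Sfp received 5 uM rhodamine-CoA plus 12.5 uM BHQ-2-ybbR (50 mM Hepes pH 7.6, 10 mM MgCl2). Rate came from the fluorescence difference over 30 min, ex 525/em 598 nm.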
Menin MLL FP FL – inhibitors of human menin-MLL interaction, wild-type MLL peptide; 290,000 tested, under 10 active; FP activity change, % at 61.4 µM; Fluorescence polarization, fluorescein-MLL peptide displacement from menin; inconclusive = falling polarisation curve, or a change in total fluorescence; inactive = total fluorescence flat and polarisation flat or rising; no compound was filed as active; the % refers to the polarisation; negative = inhibition;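 also: % of control where 0% means no effect; inhibitors lower the polarisation; unlabelled MLL peptide was the positive control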
Numbers without * were called inactive; ? = inconclusive; nt = not tested or not shown; & = joins results of further samples; [ ] = dose if it differs, or a comment. Rows were taken by chance. About 5.3% of those tested had a hit in this group.

Below each compound – TRPV1 PAM	CtBP-E1A inh	ClpP mod	gsp antag	gsp ag	Sfp inh	Menin MLL FP FL
CSc1ncccc1C(=O)NCCc1ccc(S(N)(=O)=O)cc1
  -5	1	nt	10%	0%	8%	1.1
O=C(/C=C/c1ccc(Cl)cc1)NCCCN1CCOCC1
  -23	4	0.4%	7%	-20%	-2%	-0.9
CCC(=O)Nc1ccc(NC(=S)Nc2ccccc2)cc1
  ?	-14	-0.9%	9%	16%	-13%	nt
CCn1c(SCC(=O)Nc2ccc3[nH]c(=O)[nH]c3c2)nc2ccccc21
  -9	4	-0.7%	7%	30%	nt	nt
COc1ccc(/C=N/NC(=O)CCN2CCCCC2c2cccnc2)cc1Cn1cc([N+](=O)[O-])cn1 (stereo not drawn)
  28	-5	-3.2%	-12%	2%	3%	2.2
O=C(COC(=O)/C=C/c1ccco1)NCc1ccco1
  8	nt	0.4%	1%	-4%	50µM*	-0.2
COC(=O)c1c(C)[nH]c(C(=O)C(C)OC(=O)c2cc(C)oc2C)c1C (stereo not drawn)
  -5	7	1.5%	?	0%	nt	nt
CCn1c(C)nc2cc(S(=O)(=O)C(F)(F)C(F)C(F)(F)F)ccc21 (stereo not drawn)
  -1	4	2.0%	-38%	2%	8%	1.2
COc1c2c(cc3oc(C)cc(=O)c13)OC(C(C)(C)OC1OC(CO)C(O)C(O)C1O)C2 (stereo not drawn)
  0	nt	3.7%	8%	0%	21%	3.7
CCOc1ccc(NC(=O)c2ccc(CSc3nnnn3C)cc2)cc1
  -1	-5	-1.3%	6%	-43%[15.4 µM]	8%	0.2
COc1ccc(-c2cc3nc[nH]c(=O)c3s2)cc1
  1	-3	4.1%	7%	-27%	17%	13
CCn1c(O)c(C#N)c(C)cc1=O
  -10	16	nt	3%	-4%[15.4 µM]	1%	8.2
Cc1ccsc1/C=N/NC(=O)c1sccc1C
  16	22	0.9%	6%	3%	19%	1.6
COc1cccc(CN2CCNC(=O)C2CC(=O)N2CCOc3ccccc3C2)c1OC (stereo not drawn)
  15	4	nt	-11%	-16%[15.4 µM]	-28%	1.1
O=C(CC(c1ccccc1)c1cc(Cl)ccc1O)NCCN1CCOCC1 (stereo not drawn)
  -19	-21	-1.7%	6%	?	2%	-2.0
Cc1ccc(C(=O)OCC(=O)Nc2cc(C(C)(C)C)no2)c(C)c1
  1	nt	1.5%	-7%	14%	nt	nt
Cn1c(N/N=C/c2c[nH]c3ccccc23)nc2ccccc21
  1	-16	-8.6%	?	-23%	-25%	1.5
Cn1c(=O)[nH]c(=O)c2c1nc(N1CCOCC1)n2CC(O)COc1ccccc1 (stereo not drawn)
  ?	8	-25%	-1%	?	10%	-1.5
COc1ccc(/C=N/NC(=O)c2[nH]c3ccc(Br)cc3c2-c2ccccc2)cc1
  -14	-4	nt	-3%	14%[15.4 µM]	9%	7.2
Cc1nnc(SCC(=O)NC(=O)Nc2ccc3c(c2)OCCO3)n1N
  1	-8	-3.8%	10%	2%	5%	2.9
NC(=S)N/N=C/c1coc2cc(Br)ccc2c1=O
  9	8	nt	0%	2%[15.4 µM]	0%	7.1
COCCNC(=O)CCc1nc2cccnc2n1Cc1ccc(OC)cc1
  -1	nt	-3.4%&-2.4%	5%	-2%	12%	5.7
Cc1[nH]c2ccccc2c1/C=N/NC(=O)c1cc(-c2ccncc2)nc2ccccc12
  0	-11	1.3%	?	-10%	13%	nt
CC1CCN(C(=O)c2cc3ccccc3o2)CC1
  0	7	0.7%	-7%	-2%	-21%	-0.8
O=C(CCN1C(=O)c2cccc3cccc(c23)C1=O)NCc1ccco1
  0	-1	?	-6%	0%	-2%	-1.3
COc1cccc(OCc2cc(C(=O)N(C)CCC3CCCCO3)no2)c1 (stereo not drawn)
  -23	9	1.2%	-10%	-5%	13%	nt
O=Cc1ccc([B-](F)(F)F)s1
  nt	1	2.3%	13%	nt	nt	nt
Cc1cccc(OCCCn2c(CCNC(=O)C(C)C)nc3ccccc32)c1
  -19	3	-0.3%	-17%	0%	0%	2.0
Cc1ccc(NC(=O)CS(=O)(=O)c2cn(CC(=O)N3CCOCC3)c3ccccc23)cc1
  1	-3	nt	8%	-30%	10%	-2.6
COc1ccc(C(=O)Oc2cc(OC)cc(OC)c2C(C)=O)cc1
  -13	3	1.9%	-4%	1%	25%&-7%	-0.4[11.7 µM]
C#CCOc1ccccc1/C=C1/C(=O)ON=C1C
  12	6	nt	12%	?	50µM*	-0.1
O=C(NCCc1c[nH]c2ccccc12)C(=O)c1c[nH]c2ccccc12
  13	nt	0.9%	-4%	5%	17%	nt
Cc1ccc(-n2c(=O)cc(N3CCc4ccccc4C3)[nH]c2=O)cc1
  -13	-2	-0.7%	-8%	-62%[inhibitor]	-7%	2.8
COc1ccc(OC)c(/C=C/C(=O)Nc2ccc(OC)nc2)c1
  -14	-15	-12%	-11%	?	-27%	-0.6
COc1ccc(/C=C/C(=O)OCC(=O)NC2CC2)c(OC)c1
  nt	1	-6.4%	1%	-27%	nt	nt
CCCOc1ccc(C2Nc3cccc4cccc(c34)N2)cc1
  ?	7	nt	7%	-34%[inhibitor]	3%	-5.7
Cc1ccc(C)c(NS(=O)(=O)c2cc(C(=O)NCc3ccncc3)ccc2C)c1
  -8	2	1.4%	-3%	-48%[inhibitor]	1%	0.2
C/C(CC(=O)Nc1ccc(C)c(Cl)c1)=N\NC(=O)c1cccc(O)c1
  6	-2	-1.3%	-11%	1%[15.4 µM]	-1%	1.0
Cc1nc2ccccc2c(=O)n1Cc1ccco1
  -2	nt	0.2%	4%	17%	8%	0.4
O=C1COc2ccccc2N1Cc1ccc(Cl)cc1
  5	15	1.1%	7%	-7%[15.4 µM]	6%	1.5
CCn1cc(C(=O)N2CCN(c3cccc(C)c3C)CC2)c(=O)c2ccc(C)nc21
  3	-2	nt	7%	-19%[15.4 µM]	-5%	-6.5
CN(CCOc1ccc(Cl)cc1)C(=O)C1CCN(C(=O)c2ccc(F)cc2)CC1
  10	6	-2.0%	1%	-36%	11%	nt
COC(=O)C1=CN(Cc2ccc(OC)c(OC)c2)C=C(C(=O)OC)C1c1cccs1
  -6	35	nt	-4%	-36%[15.4 µM]	-3%	2.7
OC1(c2cccc(C(F)(F)F)c2)CCN(CCN2CCCCC2)CC1
  3	3	0.1%	7%	3%[15.4 µM]	19%	-2.0
O=C(CSc1nnc(CNC(=O)c2ccccc2F)o1)NCc1ccco1
  20	0	0.8%	5%	?	13%	nt
O=C(OCC1CC(c2ccccc2)=NO1)c1ccco1 (stereo not drawn)
  ?	nt	1.8%	4%	?	28%	5.2
COC(=O)c1cn(-c2ccccc2)nc1-c1ccc(OC)c(OC)c1
  ?	nt	-4.8%	-4%	?	-9%	-0.7
CCCCc1cc(=O)oc2cc(C)cc(OCC(=O)O)c12
  -4	3	8.9µM*	-8%	15%	19%	0.6
COc1ccc2[nH]c3c(c2c1)CCN1C(=O)C(CC(=O)NCCC2=CCCCC2)C[C@H](C(=O)N2CCOCC2)[C@@]31C (stereo partly drawn)
  nt	1	0.2%	-6%	nt	nt	nt
NC(N)=NS(=O)(=O)c1ccc(NC(=S)NC(=O)c2sc3ccccc3c2Cl)cc1
  11	-2	-1.8%	9%	27%	56µM*	8.2
COc1ccc(N2CCN(CCCNC(=O)C3CCCN(S(=O)(=O)c4c(C)n[nH]c4C)C3)CC2)cc1 (stereo not drawn)
  -7	0	-6.1%	2%	?	15%	-5.4
CC1(C)Cc2cccc(OCC(=O)NC3CC3)c2O1
  -9	17	0.3%	5%	-50%[inhibitor]	-14%	7.1
Cn1ccnc1C1CCCCN1Cc1nc(Cc2ccccc2F)no1 (stereo not drawn)
  -3	4	nt	2%	-5%	15%	1.5
CC1CCCC(NC(=S)Nc2cccc(S(=O)(=O)N(C)C)c2)C1C (stereo not drawn)
  -20	-1	nt	-15%	-28%	5%	0.5
O=S(=O)(Cc1ccccc1)N=Nc1c(O)[nH]c2ccc(Br)cc12
  11	8	nt	27%	-5%[15.4 µM]	-8%	1.1
Cn1c(/C=C/c2cccc([N+](=O)[O-])c2)c([N+](=O)[O-])c(=O)n(C)c1=O
  ?	-4	0.2%	-11%	-8%[15.4 µM]	3%	-3.0
O=C(NCc1ccccn1)c1ccc(N2CCCC2)c([N+](=O)[O-])c1
  -1	-2	nt	-3%	-9%	18%	-11
CC(C)C(NC(=O)c1cccs1)C(=O)NC1=NCCS1 (stereo not drawn)
  nt	1	2.1%	14%	0%	1%	5.3
Cc1cc(=O)oc2cc(OCC(=O)NC3CCN(Cc4ccccc4)CC3)ccc12
  5	-12	4.2%	-9%	?	24%	0.2
O=C(CSc1nnc2ccccn12)Nc1nsc(-c2ccccc2)n1
  1	-1	-1.7%	-1%	?	26%	4.9

More entries.
Below each compound – TRPV1 PAM	CtBP-E1A inh	ClpP mod	gsp antag	gsp ag	Sfp inh	Menin MLL FP FL
COc1ccc(C2C(=O)c3ccccc3C2=O)c(OC)c1
  -3	3	-2.7%	6%	18%	16%	4.7
O=C(COc1ccc(Br)cc1)NC1CC1
  -19	6	-1.6%	12%	-15%	23%	nt
CCOc1ccc(N(CC(=O)Nc2nccs2)S(=O)(=O)c2c(C)[nH]c(=O)[nH]c2=O)cc1
  7	nt	-0.6%	0%	?	19%	0.9
CSCc1ccc(C(=O)NCc2ccc(F)cc2)cc1
  -5	-6	-2.6%	9%	28%	9%	5.7
Cc1ccc(S(=O)(=O)Nc2nc3c(s2)C(=O)CC(C)(C)C3)cc1
  9	-12	nt	4%	-9%[15.4 µM]	11%	6.6
O=C(Nc1nc2ccccc2s1)C1CCCO1 (stereo not drawn)
  1	4	0.7%	-2%	4%	11%	-1.1
CCO[C@H]1OC(C(=O)N2CCN(C)CC2)=C[C@@H](c2coc3ccccc3c2=O)[C@@H]1CCCO
  -9	3	-1.5%	5%	-18%	24%	0.9
